Source: PubChem (Southern Research Institute)
Mtb H37Rv: Mycobacterium tuberculosis H37Rv growth inhibition, cell based, confirmatory dose response (AID 1949); M. tuberculosis H37Rv growth inhibition; most inactive calls were filed without a number and no value below 0 was filed; 1.6% of 100,000 active; inhibition, % at 10 µg/mL, or IC50 in µg/mL where a hit was titrated;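 active means confirmed in a dose series; inconclusive means about 50% or more but not retested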;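 further: bacteria grown 7 days with compound before Alamar blue readout; 0% = untreated bacteria and 100% = reference antibiotic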
An asterisk follows results filed as active; i = inactive; ? = inconclusive. Not all compounds are listed. The share of hits here may be higher or lower than overall.

| SMILES | Mtb H37Rv |
| --- | --- |
| Cc1ccc(OCC(=O)Nc2nc3c(s2)CCCC3)c(C)c1 | i |
| COC(=O)C1CCN(C(=O)CCC2CCCCC2)CC1 | i |
| Cc1ccc2cc(CN(Cc3ccco3)C(=O)c3cccs3)c(=O)[nH]c2c1 | i |
| NS(=O)(=O)c1ccc(CCNC(=S)NCCc2ccccc2)cc1 | 0% |
| Cn1c(CNC(=O)c2cccc([N+](=O)[O-])c2)nnc1SCC(=O)Nc1nc(-c2ccccc2)cs1 | i |
| CCOC(=O)c1cnc2nc(SC)[nH]n2c1=O | i |
| Cc1nc(NCc2ccccc2)[nH]c(=O)c1CCC(C)C | i |
| Cc1cc(NC(=O)CSc2nnnn2-c2ccccc2)no1 | i |
| O=C(Nc1ccccc1)Nc1ccc2nccnc2c1 | i |
| CCn1c(CNC(=O)c2ccc(OC)c(OC)c2)nnc1SCC(=O)Nc1cc(C(F)(F)F)ccc1Cl | 3% |
| O=C(NCC1CCCO1)c1cc(-c2ccc(Cl)s2)nc2ccccc12 (stereo not drawn) | i |
| CCOC(=O)c1c(NC(=S)N2CCN(C(=O)C3CCCO3)CC2)sc(C)c1-c1ccccc1 (stereo not drawn) | 6.7µg/mL* |
| O=C(NC1(C(F)(F)F)N=C(c2ccccc2)NC1=O)C1CCCCC1 (stereo not drawn) | i |
| Cc1nnc(SCC(=O)Nc2c(Cl)cccc2Cl)[nH]c1=O | i |
| CCOC(=O)N1CCN(c2nc(-c3ccccc3)cc(C(F)(F)F)n2)CC1 | 6% |
| Cc1ccc(C)c(N(CC(N)=O)S(C)(=O)=O)c1 | i |
| c1ccc(-c2noc(C34CC5CC(CC(C5)C3)C4)n2)nc1 | 3% |
| Cc1cc2ncn(C3CC(=O)N(C)C3=O)c2cc1C (stereo not drawn) | 2% |
| O=[N+]([O-])c1ccc2c(c1)c(-c1ccccc1)c(CO)n2Cc1ccccc1 | 1% |
| CS(=O)(=O)N(CC(=O)Nc1ccccc1C(=O)NC1CCCCC1)c1cccc(C(F)(F)F)c1 | i |
| O=c1[nH]c2ccc(S(=O)(=O)Nc3ccccc3O)cc2[nH]1 | i |
| COc1ccc(Cl)cc1NS(=O)(=O)c1cc(Cl)ccc1OC | i |
| O=[N+]([O-])c1ccccc1OCCNCc1ccco1 | i |
| COc1ccc(OC)c(NC(=S)NC(NC(=O)c2ccccc2Cl)C(Cl)(Cl)Cl)c1 (stereo not drawn) | 1% |
| Cc1cc(C)cc(NC(=O)COc2cc(C)cc3oc(=O)c4c(c23)CCC4)c1 | i |
| N/C(Cc1ccc(Cl)c(Cl)c1)=N\OC(=O)c1ccc(I)cc1 | i |
| COc1cc(C2C(C(=O)c3sc(-c4ccccc4)nc3C)=C(O)C(=O)N2CCCN(C)C)cc(OC)c1OC (stereo not drawn) | 1% |
| CC1=C(C(=O)OC2CCCC2)C(c2coc3ccc(C)cc3c2=O)C2=C(CC(C)(C)CC2=O)N1 (stereo not drawn) | ? |
| CC1CCCC(C)N1C(=O)COc1ccccc1F (stereo not drawn) | i |
| Cc1nc(-c2ccc(C(=O)Nc3cccc(Br)c3)cc2)cs1 | i |
| CCOC(=O)c1c(NC(C)=O)sc(C(=O)NC2CCCC2)c1C | i |
| O=C(Cc1cc2ccccc2n1Cc1ccccc1)Nc1ccccc1Cl | i |
| COc1ccc(C2=NN(c3cccc(Cl)c3)C(c3ccc(F)cc3)C2)cc1 (stereo not drawn) | 12% |
| Cc1cc2occ(CC(=O)NNC(=O)c3ccncc3)c2c(C)c1Cl | i |
| N#Cc1ccc(Oc2ccc(C#N)cc2)cc1 | i |
| Cc1ccc(N2CCN(C(=O)c3cc4cc(Br)ccc4oc3=O)CC2)cc1Cl | i |
| C=CCc1cc(Cl)ccc1OCCCN1CCOCC1 | i |
| COc1cccc(NC(=O)CCN2CCN(CCO)CC2)c1 | i |
| COc1ccc(CNc2nc(-c3ccc(Cl)cc3)nn2S(=O)(=O)c2ccc(Cl)cc2)cc1 | i |
| O=C(O)c1cccc(S(=O)(=O)NCC2CCCO2)c1 (stereo not drawn) | i |
| O=C(O)c1cc2ncc(CCO)cn2n1 | i |
| O=C(NCCc1c[nH]c2ccccc12)c1ccccn1 | i |
| CCOC(=O)c1sc(NC(=S)NC(=O)c2cccc(OC)c2)c(C(=O)OCC)c1C | i |
| COc1ccccc1Oc1nnnn1-c1ccc(C(N)=O)cc1 | i |
| O=C(COc1ccccc1F)Nc1ccc2c(c1)OCCO2 | i |
| COc1ccc(NC(=O)CCSc2nc3sc4c(c3c(=O)n2-c2ccccc2)CCC4)cc1 | 42% |
| CCn1c(CNC(=O)c2ccccc2Cl)nnc1SCC(=O)Nc1cccc(C(F)(F)F)c1 | i |
| COc1ccc(-c2csc(NC(=S)NC(=O)c3ccco3)n2)cc1 | i |
| Cc1ccc(C2=NN=C(NC(=O)CSc3nnnn3-c3ccccc3)SC2)cc1 | i |
| O=c1oc2ccccc2cc1-c1nc2sc3c(c2c(=O)[nH]1)CCCC3 | 1% |

Four compounds drawn at random from the list so far, as already listed:
| SMILES | Mtb H37Rv |
| --- | --- |
| COc1cc(C2C(C(=O)c3sc(-c4ccccc4)nc3C)=C(O)C(=O)N2CCCN(C)C)cc(OC)c1OC (stereo not drawn) | 1% |
| COc1ccc(-c2csc(NC(=S)NC(=O)c3ccco3)n2)cc1 | i |
| COc1ccc(OC)c(NC(=S)NC(NC(=O)c2ccccc2Cl)C(Cl)(Cl)Cl)c1 (stereo not drawn) | 1% |
| O=C(Nc1ccccc1)Nc1ccc2nccnc2c1 | i |

(more compounds)
| SMILES | Mtb H37Rv |
| --- | --- |
| O=C(CSc1nnc2ccccn12)c1ccccc1 | 4% |
| COc1ccc2c(c1)c(C(C)=O)c(C)n2-c1ccc(C(C)=O)cc1 | i |
| COC(=O)Nc1nc2ccc(C)cc2s1 | 4% |
| CCC(C)c1ccccc1OCCCCN1CCCC1 (stereo not drawn) | 4% |
| COc1cc([N+](=O)[O-])cc2cc(C(=O)N3CCCCC3C)c(=O)oc12 (stereo not drawn) | 16% |
| O=C(CSc1nnnn1C1CC2CCC1C2)Nc1ccnc2ccccc12 (stereo not drawn) | i |
| CCOC(=O)c1ccc(-n2cccn2)cc1 | 3% |
| CCN(CC)C(=O)c1ccc(Oc2nnnn2-c2ccccc2)c(OC)c1 | i |
| Cc1cc(OCC(=O)Nc2ccc(S(=O)(=O)Nc3ccccc3)cc2)ccc1Br | i |
| O=C(NCc1cccnc1)c1ccc2c(c1)C(=O)N(CC1CCCO1)C2=O (stereo not drawn) | 0% |
| c1ccc(OCCn2c(Nn3cnnc3)nc3ccccc32)cc1 | 0% |
| O=C(NCCOc1ccccc1)c1n[nH]c(=O)c2ccccc12 | i |
| CC(C)C(=O)Nc1ccc(NC(=O)c2ccccc2Br)cc1 | i |
| O=C(CC1(O)C(=O)Nc2ccc([N+](=O)[O-])cc21)c1ccc(Cl)cc1 (stereo not drawn) | i |
| COc1ccc(CNC(=O)c2nc3ncccn3n2)cc1 | i |
| COCCCNC(=S)NNC(=O)OC(C)(C)C | 6% |
| O=C(CCC1CCCC1)NCc1ccc(Cl)cc1 | i |
| COc1ccc(S(=O)(=O)N(CC(=O)N2CCCC2)c2cccc(Cl)c2)cc1 | i |
| Cn1c(CNC(=O)c2ccccc2F)nnc1SCC(=O)NCc1ccccc1 | i |
| COc1ccc(CCC(=O)NC(C)c2ccccc2)cc1 (stereo not drawn) | 1% |
| Nc1nc(SCc2cccc3ccccc23)c2[nH]cnc2n1 | 9% |
| COc1cc(NC(=S)N2CCN(c3cc(Cl)ccc3C)CC2)cc(OC)c1 | i |
| COC(=O)C(C)n1ncc2ccccc2c1=O (stereo not drawn) | i |
| CC(NS(=O)(=O)c1ccc(OCC(=O)NCc2ccco2)cc1)c1ccccc1 (stereo not drawn) | i |
| Cc1cc(NC(=O)c2sc(Nc3ccccc3F)nc2N)no1 | i |
| O=C(C(=O)N1CCCCCC1)c1c(-c2ccccc2)cc2ccccn12 | i |
| O=C(CC1Nc2ccccc2NC1=O)Nc1cccc(Cl)c1 (stereo not drawn) | i |
| CCN(CC)C(=O)Oc1cccc2c(OC(=O)N(CC)CC)cccc12 | 1% |
| O=C(Nc1ccc(Cl)cn1)c1ccco1 | i |
| CCC(CC)C(=O)Nc1cccc(-c2nc3ccccc3[nH]2)c1 | 7% |
| O=C(c1cnccn1)N1CCN(c2ccccc2)CC1 | i |
| CCc1ccc(N2C(=O)CC(N3CCN(c4ccccc4F)CC3)C2=O)cc1 (stereo not drawn) | i |
| CCN1C(=O)C2Cc3c([nH]c4ccccc34)CN2C1=S (stereo not drawn) | i |
| COc1ccccc1C(=O)N=Nc1c(O)[nH]c2ccc([N+](=O)[O-])cc12 | i |
| C=CCn1c(SCC(=O)c2ccccc2)nnc1-c1cc2ccccc2o1 | i |
| CCOC(=O)c1ccc2nc(C)cc(Nc3ccc(N(C)C)cc3)c2c1 | ? |
| CCOC(=O)C1CCCN(CCC(=O)Nc2cccc(C)c2)C1 (stereo not drawn) | i |
| O=C(CCc1ccccc1)NC(=S)Nc1ccc2c(c1)COC2=O | i |
| CC(=O)Oc1cc(C(=O)Nc2ccc(F)cc2)cc(C(=O)Nc2ccc(F)cc2)c1 | 4% |
| O=C(C1CCN(C2CC(=O)N(c3ccc(C(F)(F)F)cc3)C2=O)CC1)N1CCCCC1 (stereo not drawn) | i |
| CCC(=O)c1ccc(OCC(O)CNC2CCCCCC2)cc1 (stereo not drawn) | i |
| COc1ccccc1N(CC(=O)NCc1ccc(Cl)cc1Cl)S(C)(=O)=O | i |
| Cc1nc(SC2CC(=O)N(c3ccccc3)C2=O)n[nH]1 (stereo not drawn) | i |
| CC(C)Oc1ccc(NC(=O)CSc2nc3ccccc3s2)cc1 | 6.1µg/mL* |
| O=C(Nc1nccs1)C1C2/C=C\CCCCC21 (stereo not drawn) | i |
| CC1=C(C(N)=O)C(c2ccc(Cl)cc2Cl)NC(=S)N1 (stereo not drawn) | i |
| CCC(=O)Nc1ccc2c(c1)ncn2-c1ccc(OC)cc1 | i |
| O=C(NCc1cccs1)c1cnn2cccnc12 | i |
| COc1ccc(C(=O)Nn2c(C)nnc2-n2nc(C)cc2C)cc1OC | i |
| CCCc1nc2c(=O)n(C)c(=O)[nH]c2n1CCC | i |

The results go on:
| SMILES | Mtb H37Rv |
| --- | --- |
| O=C(Oc1c(Cl)cc(Cl)c2ccccc12)N1CCCC1 | 13% |
| CS(=O)(=O)N1CCC(C(=O)NCc2ccco2)CC1 | i |
| C=CCN(CC=C)C1CC(=O)N(c2ccccc2)C1=O (stereo not drawn) | i |
| CCc1nc(N)nc2c1C(=O)CC(C)(C)C2 | i |
| COc1cccc(CN2CCN(C(=O)C(c3ccccc3)c3ccccc3)CC2)c1OC | i |
| Clc1ccc(OCCCCN2CCN(Cc3ccccc3)CC2)cc1 | 25% |
| COc1cc(C=O)cc(Cl)c1OC(=O)c1ccco1 | i |
| S=C(Nc1ccccc1)NC(c1ccccc1)c1ccccc1 | 0% |
| O=C(Nc1nc2ccccc2[nH]1)C1CC1 | i |
| COc1ccc(-n2nnnc2SCc2ccc(CSc3nnnn3-c3ccc(OC)cc3)cc2)cc1 | i |
| COc1cc(NC(=O)CSc2nncn2C)cc(OC)c1OC | i |
| CCOc1ccc2nc(SCC(=O)Nc3ccc4c(c3)OCO4)[nH]c2c1 | 40% |
| CCOc1ccc(Br)cc1S(=O)(=O)NC1CCCCC1 | i |
| CC(=O)Oc1ccc(C(=O)OCc2ccccc2)cc1 | i |
| CC(C(=O)Nc1ccc(Cl)c(Cl)c1)N(c1ccccc1)S(C)(=O)=O (stereo not drawn) | i |
| Cn1c(=O)c2c(nc(Oc3ccc4c(c3)OCO4)n2Cc2ccccc2Cl)n(C)c1=O | i |
| CCCCOc1ccc(NC(=O)CS(=O)(=O)CC(=O)c2ccc(Br)cc2)cc1 | i |
| CCOC(=O)c1ccc(NC(=O)CCCSc2nc(N)c3c4c(sc3n2)CCCC4)cc1 | i |
| CCOC(=O)c1c(-c2ccc(OCC)cc2)csc1NC(=O)C1C2CCC(C2)C1C(=O)O (stereo not drawn) | i |
| Nc1nnc(SCc2cccnc2)s1 | i |
| COc1ccc2c(c1)c1ccccc1n2C | i |
| O=C(Nc1ccccc1C(F)(F)F)N1CCC2(CC1)OCCO2 | i |
| Cn1nnc2cc(NC(=O)NCc3ccco3)ccc21 | i |
| CC(=O)c1cc(C)ccc1OC(=O)c1cccc([N+](=O)[O-])c1 | i |
| CCCNC(=O)c1sc2c(Cl)c(OC)ccc2c1Cl | i |
| CC1(C)Cc2c(sc(NCc3ccc(Br)cc3)c2C#N)CO1 | 1% |
| Cc1nc(C)c(C(=O)C2=C(O)C(=O)N(CCCN3CCOCC3)C2c2ccncc2)s1 (stereo not drawn) | i |
| NC(=O)C1CCN(C(=S)c2ccc(-c3ccc(Br)cc3)o2)CC1 | i |
| CCc1ccc(CN2CCC(C(=O)N(CCc3ccccc3)Cc3ccccc3)CC2)cc1 | 15% |
| CCOc1cc(CNCCO)cc(Br)c1OCc1ccc(Cl)cc1Cl | 1.5µg/mL* |

4 entries from above, as labelled records.
COc1ccc2c(c1)c1ccccc1n2C
  Mtb H37Rv: i
CC1(C)Cc2c(sc(NCc3ccc(Br)cc3)c2C#N)CO1
  Mtb H37Rv: 1%
CCc1ccc(CN2CCC(C(=O)N(CCc3ccccc3)Cc3ccccc3)CC2)cc1
  Mtb H37Rv: 15%
NC(=O)C1CCN(C(=S)c2ccc(-c3ccc(Br)cc3)o2)CC1
  Mtb H37Rv: i

Next part
| SMILES | Mtb H37Rv |
| --- | --- |
| CS(=O)(=O)N1CCN(c2ccc(NC(=O)c3sc4cc(Cl)ccc4c3Cl)cc2)CC1 | i |
| Cc1ccccc1C(=O)NC(C(C)C)C(C)C | i |
| COc1ccc(C(=O)NC(=S)NC2CCCCC2)cc1 | 6% |
| COc1ccccc1OCC(=O)NC1CCCCCCCCCCC1 | i |
| O=C(NC1C2CC3CC(C2)CC1C3)c1cccc(F)c1 (stereo not drawn) | 1% |
| COc1cc(S(=O)(=O)NC2CCCCC2)ccc1Br | 0% |
